Source: PubChem (Southern Research Institute)
Mtb growth: Mycobacterium tuberculosis H37Rv growth inhibition, cell based, confirmatory dose response (AID 1949). M. tuberculosis H37Rv growth inhibition. most inactive calls were filed without a number and no value below 0 was filed. inhibition, % at 10 µg/mL; hits with a dose series show IC50 in µg/mL. actives 1.6% (n = 100,000);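 active = confirmed in a dose series; inconclusive = about 50% or more but not retested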;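 note: bacteria grown 7 days with compound before Alamar blue readout; 0% = untreated bacteria and 100% = reference antibiotic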
* hit, by the source's call; i = inactive; ? = inconclusive. An excerpt. The share of hits here may be higher or lower than overall.

| canonical_smiles | Mtb growth |
| --- | --- |
| COCc1cc(C)nc(SCC(=O)NCc2ccccc2)c1C#N | i |
| COc1ccccc1NC(=O)C(Cc1ccccc1)N1C(=O)C2C3C=CC(C3)C2C1=O (stereo not given) | i |
| Clc1cccc(-c2nnc3sc(-c4ccco4)nn23)c1 | i |
| COc1cccc(C(=O)Nc2c(C)cc(Br)cc2C)c1 | 26.4% |
| Cc1cc(C(F)(F)F)nn1CC(=O)Nc1ccc2c(c1)OCO2 | 2.8% |
| Cc1cc(Br)cc(C)c1NC(=O)C(C)(C)C | i |
| CSc1ccccc1C(=O)Nc1nc2ccccc2c(=O)[nH]1 | i |
| Cc1c(Cc2ccccc2)c(=O)oc2cc(OCC(=O)C(C)(C)C)ccc12 | 13.1% |
| S=c1[nH]nc(-c2ccncc2)n1Cc1ccccc1 | i |
| Cc1sc2ncnc(SCC(=O)c3ccc(F)cc3)c2c1-c1ccccc1 | i |
| Cc1cc(C)nc(SC/C=C/c2ccccc2)n1 | 1.6% |
| COC(=O)c1ccc(OCCCCN2CC(C)OC(C)C2)cc1 (stereo not given) | i |
| Cc1ccc(CN(CC(=O)Nc2ccccc2Cl)S(=O)(=O)c2ccc(Cl)cc2)cc1 | 3.1% |
| Nc1nc(SCC(=O)N2CCCC2)[nH]c(=O)c1-c1ccccc1 | i |
| CC(C)c1ccc(N(CC(=O)Nc2ccccc2)S(C)(=O)=O)cc1 | i |
| COC(=O)C1C2C=CC3(CN(C(c4ccccc4)c4ccccc4)C(=O)C13)O2 (stereo not given) | i |
| CC1(C)CC(CCNC(=O)c2ccco2)CC(C)(C)N1 | i |
| CN1C(=O)NC(NC(=O)CCc2ccccc2)(C(F)(F)F)C1=O (stereo not given) | i |
| Cc1cc(OCC(=O)Nc2ccc(N3CCN(C)CC3)cc2)ccc1Cl | 1.5% |
| CCOc1ccc(-c2nc(-c3ccc(OC)c(OC)c3)no2)cc1 | i |

Next section
| canonical_smiles | Mtb growth |
| --- | --- |
| Cc1sc2nc(SCCCC(=O)Nc3ccccc3C(F)(F)F)[nH]c(=O)c2c1C | 0.4% |
| COc1c(C)cc(Br)cc1C(=O)O | i |
| Cc1ccc(CN(CC(=O)NC2CCCC2)S(=O)(=O)c2ccc(C)cc2)cc1 | i |
| CCOC(=O)C1CCN(C(=O)CN(Cc2ccccc2)S(C)(=O)=O)CC1 | i |
| CCSc1ccccc1C(=O)N1CCN(c2cccc(C(F)(F)F)c2)CC1 | i |
| Cc1cccc(OC(C)C(=O)N2CCC(Cc3ccccc3)CC2)c1C (stereo not given) | 6.7% |
| COc1cccc(C(=O)Nc2sc3c(c2C#N)CCC(C)C3)c1 (stereo not given) | i |
| O=C(Nc1ccc(Cl)c(Cl)c1)Nc1nnc(-c2ccccc2F)s1 | i |
| CCN(CC)C(=O)N1CCN(c2ccc(C)c(Cl)c2)CC1 | i |
| CC(=O)Cn1cnc2sc3c(c2c1=O)CCCC3 | i |
| O=C(NCCCN=C1NS(=O)(=O)c2ccccc21)c1ccco1 | i |
| CCCCOc1ccc(C(=O)N(Cc2ccccc2)C2CCS(=O)(=O)C2)cc1 (stereo not given) | 1.4% |
| COc1cccc(CSc2nc3ccccc3c(=O)n2-c2ccc(Cl)cc2)c1 | 1.4% |
| CCn1c(=O)c([N+](=O)[O-])c(N2CCCCC2)c2ccccc21 | i |
| C=CCC(CC=C)(NC(=O)CCC(=O)OC)c1ccccc1 | i |
| OCC1CCCN1C(=S)Nc1ccccc1 (stereo not given) | i |
| COC(=O)C1=C(C)NC(=S)NC1c1cc(C)ccc1C (stereo not given) | i |
| Cc1ccc(-n2c(SCC(=O)c3ccc(Cl)cc3)nnc2-c2ccncc2)cc1C | i |
| Cc1ccc2nc(/C(C#N)=C\c3cn(C)c4ccccc34)[nH]c2c1 | 6.8% |
| CC(=O)c1ccc(NC(=O)COc2ccc(Cl)cc2Cl)cc1 | i |

Further records follow:
| canonical_smiles | Mtb growth |
| --- | --- |
| CCCCC(=O)Nc1ccc(Cl)cc1C | 4.0% |
| Cc1ccc(-c2csc(NC(=O)c3cc(I)ccc3Cl)n2)cc1 | 4.9% |
| COc1ccc(CNC(=O)c2cc3cc(Cl)ccc3oc2=O)cc1OC | i |
| NC(=O)C1CCN(C(=O)c2cccc3ccccc23)CC1 | i |
| O=C(Nc1cccc(NC(=O)c2sc3ccccc3c2Cl)c1)c1ccccc1 | i |
| CN(C)c1ccc(/C=N\N=C2\NC(=O)C(Cc3cc(Cl)ccc3Cl)S2)cc1 (stereo not given) | i |
| CCc1ccc(OCC(=O)Nc2cc(NC(=O)c3ccco3)ccc2OC)cc1 | 0.4% |
| Cn1c(=O)c2c3c(sc2n2c(SCC(=O)Nc4ccccn4)nnc12)CCCC3 | 1.1% |
| Clc1ccc(CSc2nnc(SCc3ccccc3)s2)c(Cl)c1 | 7.3% |
| CCC(=O)Nc1c(CC)cccc1CC | i |
| CCc1ccc(N(CC(=O)NC2CCCC2)S(=O)(=O)c2ccccc2)cc1 | 0.1% |
| C1=CCC(CN2CCN(Cc3cccnc3)CC2)CC1 (stereo not given) | 0.1% |
| Nn1c(SCc2ccc(Cl)cc2Cl)nncc1=O | i |
| Cc1cc(C(=O)Nc2ccc(C#N)cc2)ccc1[N+](=O)[O-] | i |
| CCOc1ccc(NC(=S)NCc2ccccc2)cc1 | i |
| COc1cccc(C(=O)Nc2ccc(C)cc2NC(=O)c2cccc(OC)c2)c1 | 4.5% |
| O=C(Nc1ccc2nccnc2c1)N1CCCCC1 | i |
| CC1CCc2c(sc(NC(=O)CC34CC5CC(CC(C5)C3)C4)c2C#N)C1 (stereo not given) | i |
| COc1ccc(CCNC(=O)c2cccc(COc3ccccc3Br)c2)cc1 | 15.0% |
| Cc1ccc(NC(=O)Nc2c(C)n(C)n(-c3ccccc3)c2=O)cc1C | i |

Four of the compounds above, as labelled records:
Cn1c(=O)c2c3c(sc2n2c(SCC(=O)Nc4ccccn4)nnc12)CCCC3
- Mtb growth: 1.1%
Clc1ccc(CSc2nnc(SCc3ccccc3)s2)c(Cl)c1
- Mtb growth: 7.3%
CCC(=O)Nc1c(CC)cccc1CC
- Mtb growth: i
CCc1ccc(N(CC(=O)NC2CCCC2)S(=O)(=O)c2ccccc2)cc1
- Mtb growth: 0.1%

(further entries)
| canonical_smiles | Mtb growth |
| --- | --- |
| CCOc1ccc2cc(S(=O)(=O)N3CCN(C)CC3)ccc2c1 | i |
| N#C/C(=C/c1ccc(C#N)cc1)c1ccc(Br)cc1 | i |
| COc1cc(Cl)c(C)cc1NC(=O)CSc1nnc(-c2ccncc2)n1Cc1ccco1 | i |
| COC(=O)c1cc(C)sc1NC(=S)NCCc1ccccc1OC | i |
| O=C(O)C1C2C=CC(C2)C1C(=O)Nc1ccc(Br)c(Cl)c1 (stereo not given) | i |
| O=[N+]([O-])c1ccc(Sc2cccc3cccnc23)c2cccnc12 | 11.6% |
| COC(C)(C)c1cc(C(C)(C)C)nc(N)n1 | 1.2% |
| Cc1cccc(N2C(=O)NC(=O)C(CCc3ccccn3)(Cc3ccc4c(c3)OCO4)C2=O)c1 (stereo not given) | i |
| COc1ccccc1COc1cc2oc(=O)c3c(c2cc1Cl)CCC3 | i |
| COc1ccccc1OCCNC(=O)c1ccc(S(=O)(=O)N(C)C)cc1 | i |
| O=C(CSc1nnc(-c2ccncc2)n1-c1ccccc1)N1CCN(C(c2ccccc2)c2ccccc2)CC1 | 3.1% |
| CC1=C(C(=O)Nc2ccccc2)C(c2ccccc2)C(C#N)=C(SCC(=O)c2ccccc2)N1 (stereo not given) | 1.3% |
| CCc1ccc(NC(=O)CSc2nc3ccc(NC(=O)c4ccc([N+](=O)[O-])cc4)cc3s2)cc1 | i |
| Fc1ccc(Cn2nnc(-c3ccccc3Cl)n2)cc1 | 0.2% |
| Cc1ccc(S(=O)(=O)N(CC(=O)Nc2cccc(F)c2)c2ccccc2Cl)cc1 | i |
| O=C(c1ccc(-c2ccccc2)cc1)N1CCCCC1 | i |
| COc1ccc(NC(=S)Nc2ccc(C(C)C)cc2)c(OC)c1 | i |
| CC1=C(C(=O)OCC(C)C)C(c2ccc(F)c(F)c2)C2=C(CCCC2=O)N1 (stereo not given) | 3.7% |
| Cc1cc(O)ccc1Nc1nc(-c2cccnc2)cs1 | i |
| CC(C)(C)c1ccc(CSc2nccc(=O)[nH]2)cc1 | i |

(next part)
| canonical_smiles | Mtb growth |
| --- | --- |
| O=c1c(Cl)c(NCCO)ncn1-c1ccccc1 | 0.5% |
| COc1ccccc1C(=O)N(Cc1nc(-c2ccc(Cl)cc2)no1)C(C)C | 9.1% |
| CSc1ccccc1NC(=O)c1cc(-c2ccc3c(c2)OCO3)nc2ccccc12 | 0.2% |
| CN1CCc2nc3sc(C(=O)OCc4ccccc4)c(N)c3cc2C1 | ? |
| COc1ccc(Cl)cc1NC(=O)CN(c1ccccc1)S(=O)(=O)c1ccc(Cl)cc1 | i |
| COC(=O)c1c(NC(=S)NC(=O)c2ccccc2)sc2c1CC(C)(C)OC2 | 0.3% |
| Cc1ccc(S(=O)(=O)NC(C)C(=O)Nc2ccc(F)c(Cl)c2)cc1 (stereo not given) | 0.0% |
| CC(C)NC(=O)c1ccccc1NC(=O)C(C)Sc1ccc(Cl)cc1 (stereo not given) | 2.6% |
| O=C(Nc1ccc(F)c(Cl)c1)C1CCN(C(=O)c2ccc(-c3ccccc3)cc2)CC1 | 5.1% |
| COC(=O)c1ccc(C(=O)OC)c(NC(=O)C2CC=CCC2C(=O)O)c1 (stereo not given) | i |
| O=[N+]([O-])/C=C/c1ccccc1OCc1cccc(F)c1 | 6.26µg/mL* |
| Cc1ccc(S(N)(=O)=O)cc1NC(=O)c1ccccc1SCc1ccccc1 | i |
| COc1ccc(N(CC(=O)Nc2ccccc2C(=O)NCc2ccco2)S(C)(=O)=O)cc1OC | i |
| O=C(COc1ccc(C(F)(F)F)cc1[N+](=O)[O-])Nc1ccc(Br)cc1 | 1.1% |
| Cc1ccc(NC(=O)c2ccc(N(C)S(C)(=O)=O)cc2)cc1 | 1.6% |
| Nn1c(COc2ccc(Cl)c(Cl)c2)n[nH]c1=S | i |
| O=S(=O)(NCCc1ccncc1)c1ccc(Br)cc1 | i |
| CCOC(=O)c1cc2cc3cc(C)ccc3nc2s1 | ? |
| CS(=O)(=O)N(CC(=O)N1CCCCCC1)c1ccc(Oc2ccccc2)cc1 | i |
| Cc1cc2ncn(S(=O)(=O)c3ccc(F)cc3)c2cc1C | i |

Following part.
| canonical_smiles | Mtb growth |
| --- | --- |
| O=C(NC1CCC(NC(=O)c2ccc(F)cc2)CC1)c1ccc(F)cc1 (stereo not given) | i |
| Cc1cc(C)cc(OCCOCCNC(C)C)c1 | 0.3% |
| CC(C)NC(=O)c1ccccc1NC(=O)CN(c1ccccc1)S(=O)(=O)c1ccc(Cl)cc1 | i |
| COC(=O)c1sccc1NC(=O)c1cc(-c2ccc3c(c2)OCO3)nc2ccccc12 | i |
| CC(=O)Nc1ccc(NC(=O)C2CC(=O)N(c3ccccc3Cl)C2)cc1 (stereo not given) | i |
| Cc1ccc2nc(SCc3ccccc3)[nH]c2c1 | i |
| O=[N+]([O-])c1ccc2nonc2c1Nc1ccc(Cl)cc1 | i |
| O=C(CN1CCOCC1)Nc1ccc(Oc2ccccc2)cc1 | i |
| CCCCC(=O)Nc1ccc(-c2nc3ccccc3s2)c(Cl)c1 | 9.5% |
| CC(=O)Oc1ccc(C(=O)O/N=C(\N)c2cccnc2)cc1 | i |
| CC(C)(C)c1ccc(OCCn2c(N)nc3ccccc32)cc1 | 1.61µg/mL* |
| CCOc1ccc(C(=O)Nc2ccc(N3CCCC3)c(Cl)c2)cc1Cl | 48.5% |
| Cc1ccc(C(C)C)c(OCCNCCc2ccccc2)c1 | 41.4% |
| O=C1CC(Sc2nnnn2-c2ccccc2)C(=O)N1c1ccc([N+](=O)[O-])cc1 (stereo not given) | i |
| COc1cc2c(cc1NC(=O)Nc1ccc(F)cc1)oc1ccccc12 | ? |
| O=C(CCS(=O)(=O)Cc1ccccc1)NCc1ccccn1 | 1.3% |
| COc1ccc(-c2csc(NC(=O)c3ccccc3OC)c2C(=O)O)cc1OC | 13.7% |
| COc1ccc(NC(=O)c2cc(-c3cc(C)ccc3C)nc3ccccc23)c(OC)c1 | 6.1% |
| NC(=O)c1cccc(NS(=O)(=O)c2cccc3cccnc23)c1 | i |
| O=C(NC12CC3CC(CC(C3)C1)C2)c1ccc(C(=O)NC23CC4CC(CC(C4)C2)C3)nc1 | 5.7% |

(further entries)
| canonical_smiles | Mtb growth |
| --- | --- |
| O=S(=O)(Cc1ccccc1)NCc1ccccc1 | i |
| COc1ccc(OC)c(NC(=O)C(C)N2c3cccc4cccc(c34)S2(=O)=O)c1 (stereo not given) | i |
| Cn1cccc1CNCCCN1CCOCC1 | i |
| CCN(C(=O)Cc1ccc(F)cc1)C1CCCCC1 | i |
| O=C1CC(SCc2nc3ccccc3[nH]2)C(=O)N1c1ccccc1Cl (stereo not given) | 2.8% |
| COC(=O)c1cccc(COC(=O)c2cc3ccccc3oc2=O)c1 | 34.7% |
| O=C(Nc1ccc(Cl)c(C(F)(F)F)c1)C1CCN(C(=O)c2ccc(Br)cc2)CC1 | 7.21µg/mL* |
| CSc1cccc(NC(=O)CN(c2ccc(Cl)cc2Cl)S(=O)(=O)c2ccccc2)c1 | i |
| O=C(COc1ccc(Br)cc1Cl)NC(=S)Nc1ccccn1 | 2.2% |
| Nc1cc(N)nc(SCc2cccc(F)c2)n1 | i |
| CC(C)(C)c1ccc(OCc2nc(-c3ccc([N+](=O)[O-])cc3)no2)c(Br)c1 | 0.5% |
| O=C(CN(c1cc(C(F)(F)F)ccc1Cl)S(=O)(=O)c1ccccc1)NC1CCCCCC1 | i |
| COc1ccc2cc(Br)ccc2c1CC(=O)NN1CCN(C)CC1 | i |
| Nc1nnc(SCc2cccc(Cl)c2)s1 | i |
| CCS(=O)(=O)N1CCN(c2cccc(Cl)c2)CC1 | i |
| Cn1c(Cc2cccc3ccccc23)nnc1SCc1ccccc1Cl | 8.2% |
| CC1(C)CC(=O)C2=C(C1)Nc1ncnn1C2c1ccc(C(C)(C)C)cc1 (stereo not given) | i |
| CCCN(CCC)S(=O)(=O)c1ccc(NC(=O)C(CC)CC)cc1 | i |
| CCc1cccc(OCCNCCOC)c1 | i |
| COC(=O)c1c(NC(=O)c2nc3ncccn3n2)sc2c1CCCC2 | i |
